PrP 5UTR inh = inhibition of PrP 5' UTR reporter expression. AID 488862, 2010. hit rate 0.35% among 340,000. inhibition, % (no concentration beside the values). cell-based PrP 5' UTR mRNA reporter, plate reader;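 active means every replicate at 50% or more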;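 further: 0 = median of the neutral control wells; tested in H4 reporter cells; numbers are from one replicate; inactives centre near -14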
Bead autofluor = counter-screen for toxin protease inhibitors: compound fluorescence | fluorescence intensity (test concentration not listed) | hit rate 3.1% among 360,000 | compound autofluorescence counterscreen, microsphere flow cytometry; hits give high values;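 active means at least 3 SD above the mean of all compounds, about 16000 in these data; inconclusive means too few beads counted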;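 further: 100 nL of 1 mM stock went into each well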
Sa ugtP lethal = growth inhibition of ugtP-null S. aureus, primary screen, RN4220 ugtP deletion, OD600 | AID 1259309, 2017 | 16 h; some inactives read as strong as hits | hit rate 0.54% among 330,000 | growth inhibition, % (no concentration beside the values);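 active means z-score under -3 and OD600 up to 0.15 on both plates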;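 further: plate controls were untreated wells for no effect and antibiotic for full effect; wells of about 80 µL received 100 nL stock; the first replicate is given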
Mtb hypoxia rep = PubChem AID 1159583; M. tuberculosis hypoxia-regulated fluorescent reporter, fluorescence; fluorescence inhibition, % (concentration not given with the values); hit rate 0.1% among 300,000;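 active means 35 to 45% if threefold the growth effect, above 45% if 1.5-fold the growth effect; inactive means the rest, general growth blockers included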;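 further: wells of about 50 µL received 100 nL stock; 0% = vehicle wells and 100% = reference inhibitor wells; whole bacteria with a GFP reporter of the hypoxia response; strong numbers were not always called active; many hits fall short of the cut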
RN4220 kill = growth inhibition of S. aureus RN4220, primary screen, OD600; hit rate 0.33% among 330,000; inhibition, % (no concentration beside the values); 16 h; AID 1259311, 2017;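 active means z-score of -3 or lower and OD600 up to 0.18 on both plates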;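 further: plate controls were untreated cells for no effect and reference antibiotic for full effect; stock transfer was 100 nL into about 80 µL; one replicate is shown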
BJeLR viability = MLPCN primary cell-based screen for lethality selective to Ras in HRASV12 cells | BJeLR (HRASV12) viability, CellTiter-Glo ATP luminescence, 48 h; reference of the scale not given here | AID 1554, 2009 | hit rate 0.17% among 300,000 | inhibition, % (concentration not given with the values);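 active means replicate mean above 50%; inconclusive means above 50% but judged a plate artefact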;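 further: 50 nL library stock added to about 25 µL; numbers are from one replicate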
Mtb hypoxia rep growth = second read-out of Mtb hypoxia rep, no call of its own (marks repeat the call); growth inhibition, %; measured here: M. tuberculosis growth (absorbance);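 0% = vehicle and 100% = reference antibiotic; read after six days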
Numbers without * were called inactive; ? = inconclusive; . = not tested or not shown.

SMILES	PrP 5UTR inh	Bead autofluor	Sa ugtP lethal	Mtb hypoxia rep	Mtb hypoxia rep growth	RN4220 kill	BJeLR viability
O=C(Nc1nc2c(s1)CCCC2)c1cc(-c2ccncc2)nc2ccccc12	-8	6514	-18	1	-1	-1.9	2
C=CCNC(=O)c1cc2nc(C3CC3)cc(C(F)F)n2n1	5	17487*	0	9	12	3.5	-7
CSc1ncc(CN2CCc3c([nH]c4ccccc34)C2c2cccc(O)c2)cn1 (configuration not stated)	-15	4558	-12	-11	-9	2.7	-6
Cc1ccc(Oc2coc3cc(OC(=O)c4cccs4)ccc3c2=O)cc1	-29	16461*	18	5	9	14	4
COc1ccc2c(C)c(CC(=O)N3C[C@H]4C[C@@H](C3)c3cccc(=O)n3C4)c(=O)oc2c1C	-10	5869	-22	.	.	0.4	-2
O=C(CSc1ccc(Cl)cc1)OCC(=O)N1CCN(c2ccccc2)CC1	-27	4390	1	8	1	1.7	.
CN(C)c1ccc(C(=O)NC2CCCc3ccccc32)cc1 (configuration not stated)	-31	2575	13	16	7	6.9	4
Cn1c2ccccc2c2n[nH]c(=S)nc21	-26	3897	-4	15	8	5.7	-6
COC(=O)c1ccc2c(=O)n(CCN3CCOCC3)c(SCC(=O)c3ccccc3)nc2c1	8	3834	5	-5	3	0.1	0
Cc1nnc2c(SC(C)C)nc3ccccc3n12	-6	3922	4	15	11	3.6	3
CN(C)S(=O)(=O)c1ccc(C(=O)OCC(=O)c2csc(N3CCCCC3)n2)cc1	4	?	-3	-6	7	2.5	.
CC(C)c1nnc(NC(=O)C2CCCCC2)s1	-8	4719	-8	0	13	-5.7	5
C=CCN1C(=O)C(CCCC)NC1=S (configuration not stated)	-4	2296	7	5	10	2.6	-8
COCCOC(=O)c1ccc(NC(=O)COc2ccc([N+](=O)[O-])cc2)cc1	-15	4697	1	2	14	8.4	-1
CC(=O)Nc1sc(NN=Cc2ccc(N(C)C)cc2)nc1-c1ccc(C)cc1	.	.	-6	.	.	-2.5	.
CCOc1ccccc1Nc1nc(-c2sc(C)nc2C)cs1	2	4650	-18	-11	2	7.0	8
CC(=O)Nc1sc(C)c(C)c1C(=O)OCC(=O)N(C)c1c(N)n(Cc2ccccc2)c(=O)[nH]c1=O	-28	?	2	-6	-1	-0.4	7
COc1cc(OC)c(C(=O)/C=C/c2ccccc2)c(O)c1O	-10	5404	-3	.	.	4.5	2
CN(C(=O)c1ccc(NC(=O)Cc2ccc(NC(=O)C3CCCN(C(=O)C4CC4)C3)cc2)cc1)C1CC1 (configuration not stated)	5	3851	-8	-10	-7	2.6	.
Clc1ccc(-c2nc3ncccn3c2Nc2ccc3c(c2)OCCO3)cc1	-17	3932	-8	-6	-2	-0.5	6
COc1ccc(Cl)cc1NC(=O)CN(C)C(=O)c1cc(-c2cccs2)nn1-c1ccccc1	-11	6547	12	8	7	-13	0
O=C(NCCN1CCCCC1)c1cc(Cl)ccc1Cl	-38	3998	5	17	-1	0.7	7
COc1ccc(C2c3cc(OC)c(OC)cc3CC3C(=O)OCC32)cc1OC (configuration not stated)	1	4193	5	7	7	4.3	.
COc1ccc(Nc2ccccc2)c(C)c1	-38	22653*	2	3	-4	3.2	-6
O=C(O)c1ccc(-n2nncc2-c2ccco2)cc1	-2	3765	8	4	3	0.7	7

The list goes on (six carried over from the part before).
SMILES	PrP 5UTR inh	Bead autofluor	Sa ugtP lethal	Mtb hypoxia rep	Mtb hypoxia rep growth	RN4220 kill	BJeLR viability
Clc1ccc(-c2nc3ncccn3c2Nc2ccc3c(c2)OCCO3)cc1	-17	3932	-8	-6	-2	-0.5	6
COc1ccc(Cl)cc1NC(=O)CN(C)C(=O)c1cc(-c2cccs2)nn1-c1ccccc1	-11	6547	12	8	7	-13	0
O=C(NCCN1CCCCC1)c1cc(Cl)ccc1Cl	-38	3998	5	17	-1	0.7	7
COc1ccc(C2c3cc(OC)c(OC)cc3CC3C(=O)OCC32)cc1OC (configuration not stated)	1	4193	5	7	7	4.3	.
COc1ccc(Nc2ccccc2)c(C)c1	-38	22653*	2	3	-4	3.2	-6
O=C(O)c1ccc(-n2nncc2-c2ccco2)cc1	-2	3765	8	4	3	0.7	7
CC(C)=CCC12Oc3cc(O)ccc3C1(O)Oc1cc(O)c([C@H]3C=C(C)CC(c4ccc(O)cc4O)[C@H]3C(=O)c3ccc(O)cc3O)c(O)c1C2=O (some centres not stated)	.	.	100*	.	.	96*	3
Cc1cc(C)c(C)c(OCCOCCNCc2ccccc2)c1	-10	2243	3	10	0	1.9	-18
CC1(C)C(=O)Nc2ccccc2N1C(=O)COc1ccc(S(=O)(=O)N2CCOCC2)cc1Cl	-15	2643	6	.	.	-0.3	5
CC(C)(C)N(NC(=O)Nc1ccccc1)C(=O)c1ccccc1Cl	-77	3152	-3	15	17	-14	-1
CS(=O)(=O)N1CCN(c2ccccc2NC(=O)c2cccnc2Cl)CC1	-8	3120	7	12	10	2.6	2
COc1cccc(OC)c1C(=O)NC(=S)Nc1ccc(S(=O)(=O)Nc2nccs2)cc1	5	3447	1	6	12	5.7	1
COc1ccc(C(=O)N/C(=C\c2ccco2)C(=O)NCc2cccnc2)cc1	-22	2643	3	19	6	4.5	5
N/C(=N\OC(=O)c1cccc(Br)c1)c1ccccn1	-7	5965	6	2	6	3.6	-1
CCCN=C1CC(C)(C)CC(=O)/C1=C(/O)CCCN1C(=O)c2ccccc2C1=O	-20	4492	.	.	.	.	10
CC(=O)c1ccc2c(c1)OCO2	-19	5793	-4	.	.	-0.8	4
O=C(CSc1nc2ccccc2c(=O)n1CC1CCCO1)Nc1ccccc1Cl (configuration not stated)	-13	4924	6	9	5	3.8	0
O=C(CSCc1ccccc1Cl)NNC(=S)Nc1ccccc1	-19	8166	6	1	-2	-2.5	-14
COc1cc(-c2cc(-c3nnco3)c3ccccc3n2)cc(OC)c1OC	-12	3341	2	13	1	-4.7	-3
CC(C)(C)NC(=O)c1nn2c(C(F)(F)F)cc(-c3ccccc3)nc2c1Br	-15	3602	4	1	6	19	-4
CCOc1cccc2sc(N(CCN(C)C)C(=O)CCS(=O)(=O)c3ccccc3)nc12	-19	5344	2	15	1	-1.0	1
O=C(CSC1=Nc2ccccc2C2CC=NN12)Nc1ccc2c(c1)OCO2 (configuration not stated)	-18	4491	10	14	9	-2.4	.
CC(C)=CC(=O)OCC(=O)Nc1ncc(Cl)c(C)c1Cl	-31	10487	-7	1	2	3.4	-5
Cc1cc(C(=O)Cn2cnc3cc(F)ccc3c2=O)c(C)n1C1CC1	-43	5228	4	7	10	2.2	.
CC(C)CC(NC(=O)C(NC(=O)C(Cc1ccc(OCc2ccccc2)cc1)NC(=O)OC(C)(C)C)C(C)C)C(N)=O (configuration not stated)	-3	2159	-1	-1	-1	2.0	-8
CC(C)Nc1nc(NC(C)(C)C)nc(Oc2ccc(=O)n(C)n2)n1	-16	3134	-2	-11	-2	1.0	-1
COc1ccc(C(c2sc3nc(C)nn3c2O)N2CC(C)OC(C)C2)cc1OC (configuration not stated)	-9	5989	-5	2	11	-13	1
O=C(Nc1ccc2c(c1)C(=O)NC2=O)c1cc(Cl)ccc1Cl	-28	5743	10	6	7	1.2	11
O=C(O)/C=C/C(=O)NCc1cn(-c2ccccc2)nc1-c1cccc(Br)c1	-15	3478	.	.	.	.	-5
CCCOc1ccc(-c2nc[nH]c2[N+](=O)[O-])cc1	18	4723	1	14	3	2.4	5
Cc1csc(NC(=O)Cc2ccc(Br)cc2)n1	-33	3334	3	15	10	3.4	-6
Remaining list, next part
SMILES	PrP 5UTR inh	Bead autofluor	Sa ugtP lethal	Mtb hypoxia rep	Mtb hypoxia rep growth	RN4220 kill	BJeLR viability
COc1cccc(NC(=O)C(=O)N/N=C/c2cc(C)n(-c3ccc(Cl)c(Cl)c3)c2C)c1	-17	4411	.	.	.	.	-2
COc1ccc(NC(=O)CN(C)C(=O)c2ccc(COc3ccccc3)cc2)cc1	-8	3749	2	-5	-7	-8.7	.
CC1CCN(S(=O)(=O)c2ccc(NC(=S)NC(=O)c3ccc(Cl)cc3)cc2)CC1	-23	2722	71	.	.	-6.8	10
C#CCNc1c(C)c(C)nc2ncnn12	-8	24659*	6	0	0	1.7	-3
Cc1sc2ncnc(SCC(=O)N3CCCC(C(N)=O)C3)c2c1C (configuration not stated)	-14	6886	2	1	-2	3.1	5
CCC(=O)N1c2ccc(S(=O)(=O)N(CCO)Cc3ccccc3)cc2CC1C (configuration not stated)	-9	3615	5	.	.	1.0	2
COC(=O)NN=C(C)c1ccc(OC(F)F)cc1OC(F)F	.	.	8	11	4	4.4	.
O=C(CSc1nc2ccccc2c(=O)n1NC(=O)c1ccccc1)c1ccccc1	-42	22548*	-18	5	11	20	2
COc1cc(/C=N/NC(=O)c2[nH]nc3c2CCc2ccccc2-3)ccc1O	-19	2036	.	.	.	.	-2
Nn1c(COc2ccccc2)nc2ccccc2c1=O	-41	2510	14	7	4	20	-1
Cc1cc(Cl)ccc1OCC(=O)Nc1cccc(S(=O)(=O)NC2=NCCCCC2)c1	-32	6399	-9	-3	-3	-1.0	5
CCN(CC(=O)NCc1ccc(F)cc1)Cc1cc(=O)n2ccsc2n1	-15	4277	5	2	4	6.3	-2
Cc1ccc(CNC(=O)c2ccc(OCC(C)C)cc2)n1C	3	3582	4	3	4	0.7	-3
COc1ccc(OCC#CCN2CCNCC2)cc1	-21	2869	5	7	0	7.6	-2
O=C(O)C1C2CCC(C2)C1C(=O)Nc1ccccc1 (configuration not stated)	-18	6011	1	14	3	1.3	9
COc1ccc(NC(=S)Nc2cc(-c3ccccc3)[nH]n2)cc1Cl	-8	11985	-12	4	-9	4.8	18
COc1cc(OC)cc(C(=O)NCC(=O)OCC(=O)NC(C)CCc2ccccc2)c1 (configuration not stated)	-87	3571	8	16	11	1.3	.
O=C(O)c1cc(NC(=O)C2CCCO2)cc(C(=O)O)c1 (configuration not stated)	-18	4778	5	-3	10	5.9	0
CCc1n[nH]c(=S)n1/N=C/C(C)=C\c1ccccc1	-6	3511	.	.	.	.	-9
Cc1ccc(S(=O)(=O)NCC(=O)N(CC(=O)NCc2ccco2)Cc2cccs2)cc1	-2	20378*	7	5	5	-0.5	6
CCCS(=O)(=O)N1CCC(C(=O)NCc2ccc(F)cc2)CC1	-5	2040	1	1	-3	-2.1	2
Cn1c(=O)c2c(SCC(=O)Nc3ccccc3F)nc(-c3ccccc3F)nc2n(C)c1=O	-6	4231	5	8	2	0.7	-4
Cc1occc1C(=O)NCc1ccc2c(c1)OCO2	-30	2977	-3	8	-2	-16	5
CN(C)S(=O)(=O)c1ccc(N2CCCC2)c(C(=O)NC2(C)CCS(=O)(=O)C2)c1 (configuration not stated)	-18	5587	3	7	-1	2.0	-6
CCNC(=O)CC1C(=O)N(c2ccc(C)cc2)C(=O)N1Cc1ccccn1 (configuration not stated)	-4	6829	6	8	3	-0.7	7
Cc1ccc(CCNC(=O)C2CCCN(C(=O)c3cc4sccc4n3C)C2)cc1 (configuration not stated)	-18	9178	9	6	0	7.9	8

Of the compounds above, these contain an NH in an aromatic ring:
SMILES	PrP 5UTR inh	Bead autofluor	Sa ugtP lethal	Mtb hypoxia rep	Mtb hypoxia rep growth	RN4220 kill	BJeLR viability
CSc1ncc(CN2CCc3c([nH]c4ccccc34)C2c2cccc(O)c2)cn1 (configuration not stated)	-15	4558	-12	-11	-9	2.7	-6
Cn1c2ccccc2c2n[nH]c(=S)nc21	-26	3897	-4	15	8	5.7	-6
CC(=O)Nc1sc(C)c(C)c1C(=O)OCC(=O)N(C)c1c(N)n(Cc2ccccc2)c(=O)[nH]c1=O	-28	?	2	-6	-1	-0.4	7
CCCOc1ccc(-c2nc[nH]c2[N+](=O)[O-])cc1	18	4723	1	14	3	2.4	5
COc1cc(/C=N/NC(=O)c2[nH]nc3c2CCc2ccccc2-3)ccc1O	-19	2036	.	.	.	.	-2
COc1ccc(NC(=S)Nc2cc(-c3ccccc3)[nH]n2)cc1Cl	-8	11985	-12	4	-9	4.8	18
CCc1n[nH]c(=S)n1/N=C/C(C)=C\c1ccccc1	-6	3511	.	.	.	.	-9
